Source: PubChem BioAssay (several laboratories)
HSV augment = HSV replication enhancement. maximum fold increase. HSV replication augmentation in cells, fold increase. actives 0.005% (n = 220,000);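 active = peak rise of 1.5-fold or more in the series; inconclusive = self-fluorescent or not available for retest; tested in PC3 cells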;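 also: first round at 10 µM; read as green reporter fluorescence; hits show the peak of a series up to 25 µM; 1 = signal of infected wells without compound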
PKD1 kinase inh = inhibitors of human PKD1 kinase | Q15139 | PKD1 kinase fluorescence polarization assay | inhibition, %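 (about 10 µM by stock and volumes)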 | actives 0.056% (n = 200,000) | AID 797;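 active = inhibition of 50% or more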;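 also: controls were vehicle for no effect and a reference inhibitor for full effect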
RGS16-Gao HTS = RGS16-Galphao interaction regulator (human); O15492+P09471; bead-based flow cytometry RGS16-Galphao binding, fluorescence; actives lie on both sides; binding response (% of control), % at 10 µM; actives 0.38% (n = 220,000);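 active = below 25% or above 175%, edge rows of some plates excepted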;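 also: Galphao activated by GDP with aluminum fluoride before binding; 100% = wells without compound and 0% = beads without RGS; some results beyond the cut were filed as inactive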
Target sequence (O15492 whole entry, looked up): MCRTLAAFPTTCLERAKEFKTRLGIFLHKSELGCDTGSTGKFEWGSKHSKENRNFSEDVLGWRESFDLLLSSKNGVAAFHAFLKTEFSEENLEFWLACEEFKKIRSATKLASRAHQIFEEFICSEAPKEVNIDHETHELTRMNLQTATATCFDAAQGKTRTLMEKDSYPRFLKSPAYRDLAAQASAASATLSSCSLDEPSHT
Target sequence (P09471 whole entry, looked up): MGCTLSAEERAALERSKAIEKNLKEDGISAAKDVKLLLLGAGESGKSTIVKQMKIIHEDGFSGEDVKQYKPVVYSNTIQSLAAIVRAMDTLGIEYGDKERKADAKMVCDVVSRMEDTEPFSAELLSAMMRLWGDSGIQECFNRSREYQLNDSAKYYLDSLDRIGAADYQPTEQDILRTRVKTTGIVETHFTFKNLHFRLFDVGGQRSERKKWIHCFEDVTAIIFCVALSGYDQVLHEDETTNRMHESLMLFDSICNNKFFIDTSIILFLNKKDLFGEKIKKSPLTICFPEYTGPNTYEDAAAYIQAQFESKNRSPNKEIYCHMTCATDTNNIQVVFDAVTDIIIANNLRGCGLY
GALR2 agonist = agonists of human galanin receptor 2 (GALR2); O43603; activation, %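 (tested at 5 µM)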; GALR2-expressing cells, agonist activation read-out; AID 803; actives 0.48% (n = 140,000);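 active = above mean plus 3 SD of all compounds, about 5% in these data, not always enough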;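 also: 0% = vehicle buffer wells and 100% = reference agonist at full effect; tested in CHO reporter cells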
Target sequence (O43603 whole entry, looked up): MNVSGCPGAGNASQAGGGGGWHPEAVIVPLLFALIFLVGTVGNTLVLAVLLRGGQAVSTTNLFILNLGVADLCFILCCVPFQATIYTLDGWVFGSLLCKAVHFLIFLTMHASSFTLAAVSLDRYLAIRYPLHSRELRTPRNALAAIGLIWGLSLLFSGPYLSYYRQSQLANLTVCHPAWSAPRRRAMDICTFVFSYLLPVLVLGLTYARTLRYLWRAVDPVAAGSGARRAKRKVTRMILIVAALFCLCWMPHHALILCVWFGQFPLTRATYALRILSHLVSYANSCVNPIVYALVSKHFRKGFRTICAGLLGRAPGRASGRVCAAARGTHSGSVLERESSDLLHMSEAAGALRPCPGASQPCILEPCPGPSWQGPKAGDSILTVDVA
INS promoter inh = TRM-6 insulin promoter activity inhibition. actives 0.9% (n = 130,000). TRM-6 cells (human fetal islet line), insulin promoter-eGFP reporter, imaging; reporter expression induced with tamoxifen. AID 1273. inhibition, % at 2 µM;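 active = inhibition above the mean plus 3 SD, with well images judged a real hit on visual review, cut at about 60% in these data, passing the limit was not always enough; inconclusive = inhibition over the cutoff but images rejected on review; inactive = inhibition not above the cutoff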
INS promoter inh cell count = second read-out of INS promoter inh, no call of its own (marks repeat the call); normalized cell count, %; measured here: cell count, toxicity; reference of the scale not given here;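 cells exposed to compound for 48 h; stained nuclei by imaging scaled within each plate; lower means fewer cells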
HSV augment primary fold = recorded beside HSV augment, whose call it bears; fold increase; compound at 10 µM; measured here: primary screen fold increase 10 uM; tested in PC3 cells;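 GFP signal in the first replicate; 1 = infected wells without compound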
Starred values were filed as active, the others as inactive; i = inactive; ? = inconclusive; / = no result given. Compounds were not picked by outcome (roughly 1.2% active in at least one column).

nr	structure	HSV augment	HSV augment primary fold	PKD1 kinase inh	RGS16-Gao HTS
1	Cc1[nH]cnc1CSCCN	i	1	-1	93
2	CC1=CC(c2ccccc2)n2nc(N3C(=O)CCC3=O)nc2N1 (stereo unspecified)	i	1	-2	100
3	COc1ccccc1NC(=O)c1oc2ccc(C)cc2c1C	i	0.94	-7	132
4	CC1(C)CC2CN(C(=O)Cc3ccccc3)C(C)(C2)C1 (stereo unspecified)	i	1	-9	96
5	Cc1ccc(S(=O)(=O)N/N=C/c2ccc(O)cc2O)cc1[N+](=O)[O-]	i	0.94	/	102
6	COc1ccc(CNC(=O)c2nnn(-c3cccc(C(F)(F)F)c3)c2N)cc1	i	0.88	5	97
7	CCc1n(CC(O)COC2CCCCC2)c2ccccc2[n+]1C (stereo unspecified)	i	1	2	108
8	CC(=O)N(Cc1ccccc1)c1ccccc1C(=O)O	i	1	/	100
9	CCCCc1n[nH]c2c1C(=O)CC(C)(C)C2	i	0.98	-7	103
10	CC(=O)c1cc2c(cc1NC(=O)c1cc3nc(C(C)C)cc(C(F)(F)F)n3n1)OCO2	i	1.1	-7	103
11	CN(CCC#N)Cc1cc(=O)oc2ccc3ccccc3c12	i	0.98	/	99
12	COc1ccnc(Oc2ccc(F)cc2)c1C(=O)N/C=N/OCc1ccc(F)cc1Cl	i	1.1	-3	106
13	O=C(CSc1nnc(SCc2ccc(Cl)cc2)s1)N/N=C/c1ccccc1C(=O)O	i	1	/	97
14	COc1ccc(/C=C/C(=O)c2sc(-c3ccc(Cl)cc3)nc2C)cc1	i	0.81	-6	99
15	Clc1ccc2nc(-c3ccc4c(c3)OCO4)cn2c1	i	0.93	-3	106

nr	GALR2 agonist	INS promoter inh	INS promoter inh cell count
1	-3.4	/	/
2	-1.1	-59	87
3	-2.0	6	99
4	/	-53	102
5	/	/	/
6	/	0	98
7	/	/	/
8	/	/	/
9	-1.3	/	/
10	-1.0	/	/
11	/	/	/
12	-1.6	-9	127
13	/	/	/
14	-0.8	40	155
15	/	/	/

Additional structures
nr	structure	HSV augment	HSV augment primary fold	PKD1 kinase inh	RGS16-Gao HTS
16	O=C(/C=C/c1ccc(OC2CSC2)cc1)c1ccccc1	i	1	-16	100
17	COc1c(C)cccc1C(=O)NC(=S)Nc1cccc2nsnc12	i	0.96	2	96
18	O=C(NC(=S)Nc1ccc(S(=O)(=O)N2CCCCC2)cc1)c1cccs1	i	1	-6	100
19	O=C1OC(N2CCN(C(=O)C3CCCO3)CC2)c2ccccc21 (stereo unspecified)	i	0.86	-17	105
20	CCc1nnnn1-c1ccc([N+](=O)[O-])cc1C	i	1.1	2	98
21	CCSc1nnc(NC(=O)c2ccc(C)cc2)s1	i	0.65	5	104
22	C/C(=N\Nc1nc2c(s1)CCCC2)c1ccccc1	i	0.85	1	96
23	CCc1nnc(NC(=O)CCCSc2nc3ccccc3[nH]2)s1	i	0.99	-4	103
24	O=C(NCc1cccs1)c1ccc(S(=O)(=O)N2CCOCC2)cc1	i	0.93	-2	78
25	Cc1cc(C)c2nc3s/c(=C/c4ccc5c(c4)n(C)c(=O)n5C)c(=O)n3c2c1	/	/	-2	86
26	O=C(NNc1c(Cl)cc(Cl)cc1Cl)C1CCC1	i	0.99	-2	51
27	O=C(Nc1ccccc1Cl)c1cc(S(=O)(=O)N2CCCC(C(=O)O)C2)ccc1F (stereo unspecified)	i	0.92	-4	105
28	COc1ccc(C(=O)Nc2ccc(F)cc2F)cc1OC	i	0.89	-4	104
29	C/C(=N\O)C(C)Oc1ccc(Cl)cc1 (stereo unspecified)	i	1	-4	105
30	CCc1ccc(C(=O)O)cc1	i	1.1	/	85

nr	GALR2 agonist	INS promoter inh	INS promoter inh cell count
16	-4.7	11	85
17	/	/	/
18	-0.2	-27	86
19	0.8	-173	168
20	/	/	/
21	-0.3	/	/
22	-3.2	32	85
23	/	/	/
24	/	0	69
25	0.2	/	/
26	-0.6	13	110
27	-0.8	0	111
28	0.1	25	140
29	/	-19	74
30	/	/	/

6 of the entries above in order of their number in HSV augment primary fold, highest first.
No. | SMILES | HSV augment | HSV augment primary fold | PKD1 kinase inh | RGS16-Gao HTS | GALR2 agonist
20 | CCc1nnnn1-c1ccc([N+](=O)[O-])cc1C | i | 1.1 | 2 | 98 | /
26 | O=C(NNc1c(Cl)cc(Cl)cc1Cl)C1CCC1 | i | 0.99 | -2 | 51 | -0.6
27 | O=C(Nc1ccccc1Cl)c1cc(S(=O)(=O)N2CCCC(C(=O)O)C2)ccc1F (stereo unspecified) | i | 0.92 | -4 | 105 | -0.8
19 | O=C1OC(N2CCN(C(=O)C3CCCO3)CC2)c2ccccc21 (stereo unspecified) | i | 0.86 | -17 | 105 | 0.8
22 | C/C(=N\Nc1nc2c(s1)CCCC2)c1ccccc1 | i | 0.85 | 1 | 96 | -3.2
21 | CCSc1nnc(NC(=O)c2ccc(C)cc2)s1 | i | 0.65 | 5 | 104 | -0.3

(listing goes on)
nr	structure	HSV augment	HSV augment primary fold	PKD1 kinase inh	RGS16-Gao HTS
31	Cc1nn(C)c(Oc2ccccc2)c1CCNC(=O)CCl	i	1.1	2	100
32	CCc1nnc(NS(=O)(=O)c2ccc(N/C=C\C(=O)c3cccc(OC)c3)cc2)s1	i	1	1	100
33	CCc1ccccc1NC(=O)COc1ccc(C(=S)N2CCCC2)cc1	i	0.94	0	108
34	Cc1nc(-c2coc3c(CN(C)C)c(O)ccc3c2=O)cs1	i	0.71	2	111
35	COc1ccc(OC)c(-n2nnnc2SCC(=O)NCCc2ccccc2)c1	i	1	0	108
36	COc1ccc(NC(=O)COC(=O)Cc2c[nH]c3ccccc23)cc1OC	i	1	-1	97
37	Cc1cc(C)n(CC(=O)N2c3ccccc3Sc3ccccc32)n1	i	0.98	-2	103
38	O=[N+]([O-])c1cccc(/C=C2\CCC(/C=N/Nc3ccc4ccccc4n3)=C2N2CCOCC2)c1	i	0.98	-9	101
39	CCOc1ccc(S(=O)(=O)N2CCN(C(=O)c3cccn3C)CC2)cc1	/	/	-4	94
40	CC(C)N(CCO)C(=O)CCc1nnc(Cc2cccc(C(F)(F)F)c2)o1	i	1.1	-1	96
41	Cc1ccc(-c2cc(C(F)(F)F)n3ncc(C(=O)N4CCCc5ccccc54)c3n2)cc1	i	0.85	-4	103
42	C/C(=N\NC(=O)C1CCCN(S(=O)(=O)c2ccccc2)C1)c1cccnc1 (stereo unspecified)	i	1	-10	10
43	CCCc1nc(Cl)c(C#N)c2c1CCCC2	i	1	3	88
44	O=C(Nc1ccccc1N1CCCCC1)c1ccccc1F	i	0.77	-5	68
45	Cc1cccc(-c2nnc(SCc3nc4ccccc4[nH]3)n2Cc2ccco2)c1	i	0.96	-10	96

nr	GALR2 agonist	INS promoter inh	INS promoter inh cell count
31	/	/	/
32	/	0	189
33	/	/	/
34	0.7	-42	100
35	-0.4	-79	38
36	/	/	/
37	-1.7	48	47
38	-1.6	-194	68
39	-2.9	20	132
40	/	/	/
41	-2.0	52	135
42	-0.8	-4	102
43	-0.9	/	/
44	-1.2	-62	143
45	-0.5	/	/

Copied from the results shown for reference:
nr	structure	HSV augment	HSV augment primary fold	PKD1 kinase inh	RGS16-Gao HTS
34	Cc1nc(-c2coc3c(CN(C)C)c(O)ccc3c2=O)cs1	i	0.71	2	111
35	COc1ccc(OC)c(-n2nnnc2SCC(=O)NCCc2ccccc2)c1	i	1	0	108
36	COc1ccc(NC(=O)COC(=O)Cc2c[nH]c3ccccc23)cc1OC	i	1	-1	97
37	Cc1cc(C)n(CC(=O)N2c3ccccc3Sc3ccccc32)n1	i	0.98	-2	103

nr	GALR2 agonist	INS promoter inh	INS promoter inh cell count
34	0.7	-42	100
35	-0.4	-79	38
36	/	/	/
37	-1.7	48	47

3 entries picked at random from those above, as already listed:
nr	structure	HSV augment	HSV augment primary fold	PKD1 kinase inh	RGS16-Gao HTS
37	Cc1cc(C)n(CC(=O)N2c3ccccc3Sc3ccccc32)n1	i	0.98	-2	103
35	COc1ccc(OC)c(-n2nnnc2SCC(=O)NCCc2ccccc2)c1	i	1	0	108
42	C/C(=N\NC(=O)C1CCCN(S(=O)(=O)c2ccccc2)C1)c1cccnc1 (stereo unspecified)	i	1	-10	10

nr	GALR2 agonist	INS promoter inh	INS promoter inh cell count
37	-1.7	48	47
35	-0.4	-79	38
42	-0.8	-4	102

The main list resumes, repeating the three entries before the break.
nr	structure	HSV augment	HSV augment primary fold	PKD1 kinase inh	RGS16-Gao HTS
43	CCCc1nc(Cl)c(C#N)c2c1CCCC2	i	1	3	88
44	O=C(Nc1ccccc1N1CCCCC1)c1ccccc1F	i	0.77	-5	68
45	Cc1cccc(-c2nnc(SCc3nc4ccccc4[nH]3)n2Cc2ccco2)c1	i	0.96	-10	96
46	CC(=O)c1cccc(N=Nc2c(-c3ccccc3)[nH]n(-c3ccccc3)c2=O)c1	i	1.6	2	95
47	COc1cccc(C(=O)NC(=S)Nc2ccc3oc(=O)ccc3c2)c1	?	/	7	16
48	C/C(=N\O)c1ccccc1C(=O)O	i	1.1	-4	95
49	Cc1cc(C)n(-c2ccc(C(=O)Nc3cccc(S(=O)(=O)N4CCCC4)c3)cc2)n1	i	0.93	-2	108
50	Cc1ccc(OCc2ccoc2C(=O)O)cc1C	i	1.2	-5	93
51	N#Cc1c(NC(=O)CSc2n[nH]c(Cc3ccccc3)n2)oc(-c2ccccc2)c1-c1ccccc1	i	1.1	-2	65
52	Cc1ccccc1OCCN(C#N)c1nc(N(C)C)nc(N(C)C)n1	i	1.1	-3	114
53	Cc1ccc(NC(=O)CCC(=O)c2ccc(F)cc2)cc1Cl	i	0.92	1	100
54	COc1ccc(CCCc2nnc(SCC(=O)Nc3ccc(OC)cc3)o2)cc1	i	0.82	-3	101
55	Cn1c(=O)c2c(ncn2CC(=O)OCC(=O)Nc2ccccc2)n(C)c1=O	i	0.94	0	105
56	COCCOC(=O)/C=C1/NC(=O)CS1	i	1.2	-12	98
57	COc1ccc(S(=O)(=O)N2CCC(N3CCN(Cc4ccccc4)CC3)CC2)cc1	i	0.94	3	99
58	O=C(CCN1CCN(c2ccccc2F)CC1)Nc1ccccc1F	i	0.99	0	107
59	O=S(=O)(Nc1cccc(-c2nc3cccnc3s2)c1)c1cccs1	i	1	/	99
60	Cc1ccc(CSCCNS(C)(=O)=O)cc1	i	1	-15	53

nr	GALR2 agonist	INS promoter inh	INS promoter inh cell count
43	-0.9	/	/
44	-1.2	-62	143
45	-0.5	/	/
46	/	/	/
47	0.5	/	/
48	-1.7	/	/
49	/	/	/
50	-4.5	-59	149
51	-2.0	19	132
52	/	/	/
53	-0.8	13	94
54	/	/	/
55	/	-29	44
56	-1.4	8	68
57	/	-17	115
58	-2.0	57	133
59	/	/	/
60	-2.4	9	141

(continued)
nr	structure	HSV augment	HSV augment primary fold	PKD1 kinase inh	RGS16-Gao HTS
61	O=C(O)c1ccc2c(=O)[nH]c(CCl)nc2c1	i	0.94	-3	103
62	Cc1ccc(NC(=S)NNc2ncc(C(F)(F)F)cc2Cl)cc1	i	1.2	6	110
63	CCCOc1ccccc1C1NC(=O)NC(C)=C1C(=O)OCCOCC (stereo unspecified)	i	0.87	1	105
64	O=C(Nc1nc(C2C3CC4CC(C3)CC2C4)cs1)c1cc2cc([N+](=O)[O-])ccc2oc1=O (stereo unspecified)	/	/	-11	95
65	COc1cc2c(cc1NC(=O)Nc1ccc(C)cc1)oc1ccccc12	i	1	6	101

nr	GALR2 agonist	INS promoter inh	INS promoter inh cell count
61	/	/	/
62	-1.3	/	/
63	-2.1	0	88
64	-0.7	0	177
65	-2.9	-29	101
